# Source: PubChem BioAssay (several laboratories)
# RanGTP-Imp inh: inhibitors of RanGTP-importin-beta interaction, primary screen, biochemical, FRET, CFP-Ran, YFP-importin-beta, homogeneous; inhibition, % (no concentration beside the values); cell-free CFP-Ran/YFP-importin-beta FRET ratio; 300,000 compounds, 1.1% hits;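 active = most replicates above 15%; inconclusive = exactly half above 15%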;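 also: 0% = DMSO wells and 100% = Ran loaded with GDP instead of GTP; wells of about 40 µL received 100 nL stock; the first replicate is given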
# LANA-H2A inh: blockers of LANA interaction with H2A/H2B – biochemical, FP readout, HTS, primary screen | 320,000 compounds, 0.6% hits | inhibition, % (no concentration beside the values) | Protein LANA1 (Human herpesvirus 8 type P (isolate GK18)), Q9QR71 | cell-free LANA-H2A/H2B peptide, fluorescence polarization; in the data active = inhibition mostly above about 10%, no sharp cut-off; inactive = mostly below about 6.7%;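 also: stock transfer was 7.5 nL into about 10 µL; 0% = median of vehicle wells and 100% = median of positive control wells; one replicate is shown; the record names a cut of 25% in any replicate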
# Beta2AR agonist: beta2AR agonists driving receptor internalization, primary screen, cell-based, FAP fluorogen, flow cytometry. Beta-2 adrenergic receptor (Homo sapiens), P07550. Am2.2-beta2AR cells; reference of the scale not given here. response, % (concentration not given with the values). 340,000 compounds, 0.43% hits. AID 504454, 2011;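 active = response above a set limit, near 3 SD of response in nonfluorescent compounds, cut at about 42% in these data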;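 also: stock transfer was 100 nL into about 11 µL; a reference agonist was the positive control; negative values mostly stem from fluorescent compounds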
# Target sequence (P07550 whole entry, looked up): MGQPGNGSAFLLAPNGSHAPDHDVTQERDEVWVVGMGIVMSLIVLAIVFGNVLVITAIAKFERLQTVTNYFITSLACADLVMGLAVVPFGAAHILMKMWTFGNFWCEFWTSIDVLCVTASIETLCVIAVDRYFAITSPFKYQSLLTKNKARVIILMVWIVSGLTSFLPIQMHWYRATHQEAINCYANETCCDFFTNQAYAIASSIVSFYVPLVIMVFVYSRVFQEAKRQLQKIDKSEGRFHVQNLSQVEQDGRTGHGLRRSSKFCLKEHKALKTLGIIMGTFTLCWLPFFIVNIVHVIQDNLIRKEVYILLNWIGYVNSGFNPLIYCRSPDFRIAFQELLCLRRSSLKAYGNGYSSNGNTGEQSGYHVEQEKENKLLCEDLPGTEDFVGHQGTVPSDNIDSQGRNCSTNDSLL
# HNF4A DNA FP: change in binding of human HNF4A to DNA, primary screen, biochemical, fluorescence polarization, FITC-DNA; 1 h; activity change, % at 10 µM; 360,000 compounds, 0.3% hits; AID 1224865, 2016; in the data active = activity change above about 30%, passing the limit was not always enough;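 also: controls were the assay level and a saturating level of protein; the project sought stronger binding though the title names inhibitors; some compounds called inactive have numbers as strong as hits; positive values seem to mean higher polarization but the record does not say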
# Target sequence (P41235 whole entry, looked up): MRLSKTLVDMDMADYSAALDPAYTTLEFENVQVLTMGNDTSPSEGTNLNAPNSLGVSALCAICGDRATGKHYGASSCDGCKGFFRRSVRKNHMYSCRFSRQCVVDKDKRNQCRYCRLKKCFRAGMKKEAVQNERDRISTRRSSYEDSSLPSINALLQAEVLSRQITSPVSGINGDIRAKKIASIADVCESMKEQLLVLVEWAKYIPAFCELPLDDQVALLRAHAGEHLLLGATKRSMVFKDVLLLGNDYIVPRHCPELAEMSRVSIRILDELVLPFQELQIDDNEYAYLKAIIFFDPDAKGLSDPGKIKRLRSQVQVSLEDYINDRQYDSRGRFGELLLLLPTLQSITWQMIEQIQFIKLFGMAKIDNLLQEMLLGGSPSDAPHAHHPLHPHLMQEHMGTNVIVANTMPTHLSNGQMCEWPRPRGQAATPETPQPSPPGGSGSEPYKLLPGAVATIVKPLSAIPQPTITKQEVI
# Vif A3G: inhibitors of Vif binding to APOBEC3G peptide, primary screen, biochemical, TR-FRET, GST-Vif 1-94, biotin-A3G peptide, dose response retest (AID 1117319). Virion infectivity factor (Human immunodeficiency virus type 1 group M subtype B (isolate …. TR-FRET GST-Vif / biotin-A3G peptide binding; higher % means a stronger effect; test concentration not given here; strong numbers were not always called active. one-dose inhibition, %; IC50 in µM for titrated hits. 260,000 compounds, 0.57% hits;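 active = above the screen mean plus three standard deviations and confirmed in dose response; inconclusive = results disagree or hit not tested in dose response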;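 also: Vif residues 1-94 fused to GST binding biotinylated APOBEC3G peptide 110-148; 0% = full assay without inhibitor and 100% = GST in place of GST-Vif; retest series ran down from 100 µM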
# ALR inh: inhibitors of human ALR sulfhydryl oxidase, primary screen, biochemical, H2O2 detection, HRP-luminol luminescence, single point | purified ALR, DTT oxidation | inhibition, % (concentration not given with the values) | 290,000 compounds, 3.8% hits;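 active = mean and each replicate at 75% or more; inconclusive = only one of the two met; inactive = neither met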;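 also: stock transfer was 7.5 nL into about 7.5 µL; 0% = neutral wells and 100% = wells with inactivated enzyme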
# Calb FLC: C. albicans growth inhibition with fluconazole, primary screen, CaCi-2 strain, Alamar Blue fluorescence. C. albicans CaCi-2 (fluconazole-resistant clinical isolate) + fluconazole, 48 h. growth inhibition, % (test concentration not listed). 300,000 compounds, 0.57% hits;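 active = most replicates above 75%; inconclusive = exactly half above 75%; inactive = most below 75%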;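 also: all wells also contain fluconazole at 8 µg/ml as a sub-toxic cotreatment; 0% = median of DMSO wells and 100% = median of geldanamycin control wells; wells of about 8 µL received 7.5 nL stock; the first replicate is given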
# * marks the source's active call; other numbers are inactive results; i = inactive; u = inconclusive; x = no result given.
mol,RanGTP-Imp inh,LANA-H2A inh,Beta2AR agonist,HNF4A DNA FP,Vif A3G,ALR inh,Calb FLC
Cc1c(NC(=O)CSc2nc3ccccc3n2C)c(=O)n(-c2ccccc2)n1C,1.4,3.7,-6,-1.8,-8%,-2,-1
CCc1ccc(NC(=S)N2CCC(NC(=O)c3ccccc3)CC2)cc1,0.5,-2.5,2,2.8,x,-5,-8
O=[N+]([O-])c1ccc(N2CCN(C(=S)NCc3ccc(Cl)cc3)CC2)cc1,-3.8,-0.9,2,2.9,-4%,-2,-5
CC(C)C(=O)NNC(=O)c1c(O)c2ccccc2[nH]c1=O,9.3,-1.7,6,6.0,-8%,20,7
CCOC(=O)C1=C(C)N(CCCC(=O)O)C(=O)NC1c1ccccc1OS(=O)(=O)c1ccc(C)cc1 (centres undefined),x,0.0,-3,0.0,29%,x,x
COC(=O)C1CCN(C(=O)CSc2ccccc2)CC1,4.7,-4.6,8,3.3,2%,11,-2
O=C(NCc1ccco1)c1cccnc1-c1nc2ccccc2s1,4.0,3.0,-3,-0.6,1%,4,-5
O=C(NCCCN1CCCCCC1)c1ccc(N2CCCC2=O)cc1,-2.5,2.6,-7,5.9,-3%,-3,-7
O=c1c(-c2nc3ccccc3s2)cccn1Cc1ccc(Cl)cc1,u,4.3,-16,9.4,u,16,-1
CCn1c(SCC(=O)c2ccccc2)nc2ccccc2c1=O,-2.4,0.2,1,-2.4,u,24,5
COc1ccc(C(=O)N2CCC(C(=O)N3CCN(c4ccccc4)CC3)CC2)cc1,-1.5,0.3,-7,0.4,x,x,13
Cc1ccc(CS(=O)(=O)c2ncn[nH]2)cc1,5.5,4.9,-11,1.8,3%,x,-2
CCOC(=O)c1cnc(SC)nc1Oc1cccc(NS(=O)(=O)c2ccc(Cl)cc2)c1,2.3,4.3,0,5.1,-4%,x,-7
O=C(NCCN1CCOCC1)c1cccc(S(=O)(=O)N2CCCCC2)c1,1.7,3.6,3,0.6,3%,-3,0
CC(C)(C)NC(=O)c1cccc(NC(=O)Cc2cccs2)c1,2.7,0.1,-2,1.4,-1%,-5,13
O=c1c2ccccc2ncn1-c1ccc([N+](=O)[O-])cc1Cl,5.9,-5.9,-19,2.6,x,-14,29
COc1ccc(S(=O)(=O)N2CCCCC2)cc1NC(=O)COC(=O)c1ccco1,x,0.7,3,-0.2,x,x,x
CC(CC(=O)NC1CCSC1=O)c1ccccc1 (centres undefined),1.9,2.6,4,2.8,-3%,-3,-4
CC(C)c1ccc(/C=N/NC(=O)CC(=O)NCc2ccccc2)cc1,-0.3,0.2,-14,0.4,-5%,-6,-6
CCOC(=O)C1CCCN(C(=O)c2cc3c(=O)n(C)c4ccccc4c3n2C)C1 (centres undefined),-2.4,-5.5,-3,2.7,2%,-14,14
Cc1cc(=O)n2nc(N3CCC(C(=O)NC4CCCc5ccccc54)CC3)sc2n1 (centres undefined),x,-5.0,3,-1.4,-2%,-1,x
O=C(c1cccc(F)c1)N1CCc2ccccc2C1,8.9,0.9,-6,4.3,u,x,7
CCOc1ccc(C(C)=O)cc1COC(=O)c1ccccc1C(=O)N(C)Cc1ccccc1,x,x,3,0.1,-2%,x,x
CCNc1nc2cccnc2s1,-0.8,2.0,1,3.6,x,-10,-7
CCc1ccccc1N1C(=O)c2cccc3c(N4CCOCC4)c([N+](=O)[O-])cc(c23)C1=O,5.5,0.2,-5,-1.6,-1%,-14,3
CCn1cc(C(=O)NCCC(C)C)c(=O)c2cc(F)c(N3CCN(C(=O)c4ccco4)CC3)cc21,u,3.3,10,-0.4,x,-1,-6
CCc1cccc(NC(=O)CC2Oc3ccccc3NC2=O)c1 (centres undefined),-1.6,-6.0,-2,-0.4,-2%,1,0
Cn1c(C(=O)OCC(=O)NCC2CCCO2)cc2sccc21 (centres undefined),-1.8,1.8,-18,-3.3,u,-3,-3
CC(C)CN(C(=O)COC(=O)CNC(=O)c1ccccc1F)C1CCS(=O)(=O)C1 (centres undefined),-4.1,-1.1,1,-2.7,-1%,-5,107*
O=C(N=Nc1c(O)n(Cc2ccccc2)c2ccccc12)c1cc2ccccc2cc1O,0.7,i,6,-3.3,0%,-2,-7
COc1ccc(NS(=O)(=O)c2ccc3oc4ccccc4c3c2)cn1,2.7,-3.3,-21,-4.1,14%,-4,28
COc1cccc2c1cc1c(=O)n(CC(=O)NCCCN3CCCCC3)nc(C)n12,0.1,1.3,-6,0.4,x,-7,5
CCc1ccc2cccc3c2c1N=CN3C,-2.3,1.4,15,-1.5,x,100*,1
Cc1ccsc1/C=N/NC(=O)Cn1cnc2ccccc21,1.4,-3.5,-10,-0.9,-2%,-8,0
Cc1cc(C)nc(Nc2ccc(F)cc2)n1,1.0,-1.5,2,-0.6,x,-3,-11
COc1ccc(CSc2nnc3[nH]c(=O)cc(N)n23)cc1,6.6,3.0,12,-2.4,x,-4,-2
CCc1ccc(C(C)NC(=O)C2(C)CC2(Br)Br)cc1 (centres undefined),-4.8,8.2,-20,-1.2,0%,-2,-17
COc1ccc(S(=O)(=O)N2CCN(Cc3cccc([N+](=O)[O-])c3)CC2)cc1,-1.0,2.3,5,1.0,x,x,-3
Cc1ccccc1Cn1c(CN2CCN(c3ccc(F)cc3)CC2)nc2c1c(=O)n(C)c(=O)n2C,-3.1,2.3,x,x,1%,23,-1
Cc1ccc(-c2nn(-c3ccccc3)cc2NC(=O)c2ccccc2)cc1,u,0.1,-6,-3.8,3%,-4,-4

# Only RanGTP-Imp inh (two entries from above):
Structure,RanGTP-Imp inh
CCc1ccc2cccc3c2c1N=CN3C,-2.3
Cc1cc(C)nc(Nc2ccc(F)cc2)n1,1.0

# Continuation.
mol,RanGTP-Imp inh,LANA-H2A inh,Beta2AR agonist,HNF4A DNA FP,Vif A3G,ALR inh,Calb FLC
Cc1cccc(CCN(Cc2cc3cccc(C)c3[nH]c2=O)C(=O)N2CCOCC2)c1,-0.8,-2.7,-18,-0.7,-3%,x,-5
COc1ccc(N(CCC(=O)Nc2ccccc2F)S(=O)(=O)c2ccc(C)cc2C)cc1,6.8,x,3,1.2,-2%,x,-5
CCc1ccc(-n2c(Cc3ccccc3)n[nH]c2=S)cc1,3.3,-2.8,19,-2.4,-4%,12,-20
CCC(=O)N1CC2(C)CN(C(=O)CC)CC(C)(C1)C2,17*,1.0,-2,-0.8,2%,-20,-10
CC1CN(C(=O)c2cccn(Cc3c(Cl)cccc3Cl)c2=O)CC(C)O1 (centres undefined),u,-0.3,-4,-4.9,-3%,0,-11
CCOC(=O)C1Nc2ccc(C(F)(F)F)cc2C2C=CCC12 (centres undefined),0.0,-5.4,-1,-1.0,x,-11,-3
Nc1nc(SCc2ccc3c(c2)OCO3)n[nH]1,-1.6,-4.0,-3,2.8,-8%,-3,-4
CCOC(=O)C1CCN(C(=O)c2cccc(S(=O)(=O)N3CCCc4ccccc43)c2)CC1,x,x,10,3.3,-1%,x,x
COc1cccc(-c2nnn(CC(=O)O)n2)c1,-1.3,2.6,-6,-1.5,-2%,-6,3
O=C(NCCCN1CCCC1=O)c1ccc([N+](=O)[O-])s1,x,-0.1,-3,4.6,-6%,-31,6
COc1ccc(-c2cc(C(=O)N(C)Cc3cccc(OC)c3OC)c3ccccc3n2)cc1OC,2.8,-2.1,11,-0.6,0%,-5,3
CN(C(=O)c1cccc(NC(=O)Cc2ccc([N+](=O)[O-])cc2)c1)C1CCCC1,x,-4.8,-4,-3.3,x,4,x
CC(Sc1nc(-c2ccccc2)cc(C(F)(F)F)n1)C(=O)NCc1ccco1 (centres undefined),-1.9,2.3,6,0.9,-8%,-5,8
O=c1cc(-c2ccc(F)cc2F)[nH]c2ccccc12,u,6.6,x,x,33%,-6,4
COc1ccc(Cn2c(O)cc(=O)[nH]c2=O)cc1,-1.4,0.2,10,0.5,17%,2,-8
C=CCC(C(=O)OC)(C(=O)OC)c1ccc(C(F)(F)F)cc1[N+](=O)[O-],1.2,0.2,7,-2.6,-9%,-23,-15
CCC(C)C(=O)Nc1nc2ccc(OC)cc2s1 (centres undefined),1.9,-4.7,3,1.7,13%,-3,-30
Cc1ccc(S(=O)(=O)N2C[C@@H]3[C@H]4CC[C@H](C4)[C@@H]3[C@@H](C)[C@@H]2c2cn(Cc3ccccc3)c3ncccc23)cc1,x,x,-1,-2.0,-1%,x,x
CCCN(CCC)C(=O)C1CC(=O)OC12CCCCC2 (centres undefined),2.9,13*,-5,-3.5,-1%,1,-7
COc1ccc(CN(CC(=O)NCc2ccco2)C(=O)CNS(=O)(=O)c2ccc(C)cc2)cc1,-0.7,4.8,1,2.8,-2%,x,-4
Cc1cc(S(=O)(=O)NCc2ccccc2)ccc1OCC(=O)N1CCCC1,-3.9,6.9,2,1.1,x,0,0
CCOc1ccc(NC(=O)CN(C)CC(=O)Nc2cc(Cl)ccc2C#N)cc1OCC,4.2,2.3,-6,-3.8,-25%,-9,2
COc1ccc(Cl)cc1N(C(=O)c1ccco1)C(C(=O)NC1CCCC1)c1ccco1 (centres undefined),-4.4,-0.6,6,2.4,x,x,-1
Cc1nnc(NC(=O)c2ccc(F)c(S(=O)(=O)N3CCCCC3)c2)s1,-0.9,0.0,4,1.3,x,-6,11
COC(=O)C/C=C/[C@@H](C)[C@@H](/C=N/O[C@@H](C)c1cn([C@H](CO)Cc2ccccc2)nn1)NS(=O)(=O)c1ccc(C)cc1,-0.3,3.8,x,x,x,-23,3
COc1cc(C(=O)OCCCc2cc3ccccc3c(=O)o2)cc(OC)c1OC,x,3.5,-7,-0.6,x,3,x
Cc1cc(C(=O)Nc2ccc(C)c(C)c2)n(-c2ccccc2)n1,5.6,-3.5,-3,1.4,5%,x,-6
Nc1ncc([N+](=O)[O-])cc1Br,0.7,-2.7,-5,-4.4,x,-5,-1
Cc1c(Br)ccc(NC(=O)CCN2C(=O)C3C4CCC(C4)C3C2=O)c1C (centres undefined),-2.0,-1.1,-3,-4.0,-8%,23,-6
O=C(Cc1ccccc1F)Nc1ccc(S(=O)(=O)N2CCCCC2)cc1,5.9,1.3,-3,-1.6,2%,2,-15
CCOC(=O)C(C)/C(C)=N/NC(N)=S (centres undefined),-2.4,-0.1,0,-2.6,-9%,96*,-14
Cc1ccc2nc(SCC(=O)Nc3ncccn3)[nH]c2c1,6.8,6.6,4,-0.5,2%,x,-1
CCC(=O)N(CCC(c1ccc(C)cc1)c1ccco1)Cc1ccco1 (centres undefined),3.5,-7.0,13,-0.8,21%,5,-2

# Taken from above.
# O=C(Cc1ccccc1F)Nc1ccc(S(=O)(=O)N2CCCCC2)cc1 @ Vif A3G: 2%
# CCC(=O)N(CCC(c1ccc(C)cc1)c1ccco1)Cc1ccco1 (centres undefined) @ ALR inh: 5
